Autofluor counter: compound fluorescence in toxin protease inhibitor counterscreen | fluorescence intensity (test concentration not listed) | AID 624483 | compound autofluorescence counterscreen, microsphere flow cytometry; active compounds read high | 3.1% of 360,000 active;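 active = at least 3 SD above the mean of all compounds, about 16000 in these data; inconclusive = too few beads counted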;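 note: 100 nL of 1 mM stock went into each well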
PrP 5UTR inh: inhibition of PrP 5' UTR reporter expression; 0.35% of 340,000 active; cell-based PrP 5' UTR mRNA reporter, plate reader; inhibition, % (no concentration beside the values);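 active = every replicate at 50% or more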;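 note: 0 = median of the neutral control wells; tested in H4 reporter cells; numbers are from one replicate; inactives centre near -14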
* marks the source's active call; other numbers are inactive results; ? = inconclusive. Not all compounds are listed, so the mix of outcomes need not match the whole.

Structure,Autofluor counter,PrP 5UTR inh
C=C[C@@H]1c2ccccc2N(S(=O)(=O)c2ccc(C)cc2)[C@H](c2ccccc2)C1(C#N)C#N,3619,-16
O=C1[C@@H]2[C@@H](CN3CN(c4ccccc4)N=C(c4ccccc4)[C@@]23c2ccccc2)C(=O)N1c1ccccc1,3695,-14
C#CCOCCOCCOCCNc1nc(N2CCN(C(=O)[C@H](CCCN=C(N)N)n3cc(C(N)[C@@H](C)CC)nn3)CC2)nc(N2CCN(C(=O)[C@H](CCCCN)n3cc([C@@H](N)[C@H](C)CC)nn3)CC2)n1 (stereo partly specified),3299,-9
CC(C)C[C@@H](CNCC(=O)[C@H](CC(C)C)NC(=O)c1[nH]cnc1C(=O)N[C@@H](C)CN)NC(=O)c1nc[nH]c1C(=O)N[C@@H](CC(C)C)C(=O)O,2994,6
COC(=O)C1=C(c2ccc(OC(F)(F)F)cc2)C[C@@H]2CC[C@H]1N2C(=O)NCc1cc(C)oc1C(F)(F)F,2851,-13
COc1ccc(/C=N/NC(=O)c2cc(C)n(-c3ccccc3)c2C)cc1OC,4938,15
NCC(=O)c1ccccc1,5361,-26
C[C@H](CO)N1C[C@H](C)[C@@H](CN(C)S(=O)(=O)c2cccs2)Oc2ccc(NS(=O)(=O)c3ccccc3)cc2C1=O,3975,-17
Nc1nc(Br)c2c(F)cccc2c1-c1ccccc1,21859*,-15
Oc1ccc(Cl)cc1/C=N/c1nc2ccccc2[nH]1,22498*,-4
COc1ccc2c(c1)[C@H]1[C@H](CO2)[C@H](c2ccccc2)[C@@]2(C)C(=O)N[C@H](C)C(=O)N12,3023,3
CN1C[C@@H]2[C@@H]3C(=O)N(Cc4ccccc4)C(=O)[C@@H]3[C@](Cc3ccccc3)(C1=O)N2C(=O)c1ccc(C(C)(C)C)cc1,3775,-21
c1ccc(C[C@H]2CN=C(Nc3ccccc3)N2CC2CCCCC2)cc1,3001,-11
C=CC[C@@H](Cc1ccc(F)cc1)C(=O)OC[C@@H]1CCCN1C(=O)[C@@H](CC=C)CC(=O)N[C@@H](CO)Cc1ccccc1,3034,-16
CC(NC(=O)COC(=O)c1cccnc1Cl)C12CC3CC(CC(C3)C1)C2 (stereo unspecified),3679,-25
CC(C)NC(=O)N(C)C[C@H]1Oc2ccc(NC(=O)Nc3ccc(C(F)(F)F)cc3)cc2C(=O)N([C@H](C)CO)C[C@@H]1C,3632,-29
O=C(N/N=C/c1ccc2c(c1)OCO2)c1cc(-c2ccco2)nc2ccccc12,?,-19
COC(=O)C=C1CCC2C3CCC4=CC(=O)C(Br)CC4(C)C3C(=O)CC12C (stereo unspecified),3768,-30
O=C(O)CC1CCC1CC(=O)O (stereo unspecified),2977,-8
OC[C@H]1O[C@@H](n2cnc3cc(Cl)c(Cl)cc32)[C@H](O)[C@@H]1O,6582,-11

Reformatted: entries from further up.
Structure: C=C[C@@H]1c2ccccc2N(S(=O)(=O)c2ccc(C)cc2)[C@H](c2ccccc2)C1(C#N)C#N
  Autofluor counter: 3619
  PrP 5UTR inh: -16

Structure: O=C1[C@@H]2[C@@H](CN3CN(c4ccccc4)N=C(c4ccccc4)[C@@]23c2ccccc2)C(=O)N1c1ccccc1
  Autofluor counter: 3695
  PrP 5UTR inh: -14

Structure: C#CCOCCOCCOCCNc1nc(N2CCN(C(=O)[C@H](CCCN=C(N)N)n3cc(C(N)[C@@H](C)CC)nn3)CC2)nc(N2CCN(C(=O)[C@H](CCCCN)n3cc([C@@H](N)[C@H](C)CC)nn3)CC2)n1 (stereo partly specified)
  Autofluor counter: 3299
  PrP 5UTR inh: -9

Following part.
Structure,Autofluor counter,PrP 5UTR inh
COc1cccc(C(=O)NC2C(=O)N3C(C(=O)O)=C(COC(C)=O)CSC23)c1 (stereo unspecified),4174,-21
C[C@@H](OC(=O)N(C)Cc1ccccc1)[C@H]1O[C@]2(C)CCCC[C@H]1O2,3991,-30
CN1c2ccccc2-c2ccccc2S1(=O)=O,3925,-28
Cc1cc(C)c(CN2CCN(CCCn3ccc(NC(=O)OCc4ccccc4)nc3=O)CC2)c(C)c1,3535,-30
CCOC(=O)[C@@H]1[C@H]2COc3cc(OC)ccc3[C@@H]2N2C(=O)N(c3cccc(C)c3)C(=O)[C@]12C,4068,-6
O=C(CN1C(=O)S/C(=C\c2ccc(-c3cc(C(=O)O)ccc3Cl)o2)C1=O)Nc1ccc2c(c1)OCO2,6011,-5
C#CCOCCOCCOCCNc1nc(N2CCN(C(=O)Cn3cc(CCO)nn3)CC2)nc(N2CCN(C(=O)Cn3cc(CCCN=C(N)N)nn3)CC2)n1,3903,4
COc1ccc2c(c1)C(=O)N1[C@H]3c4cc(C)ccc4OC[C@@H]3[C@H](c3ccccc3)[C@]1(C)C(=O)N2,3718,-15
O=C(O)c1cc(=O)[nH]c2ccccc12,5731,-10
C#CCOCCOCCOCCNc1nc(N2CCN(C(=O)CCCCCCCCCCNC(=O)[C@H]([C@@H](C)CC)n3cc(CCCCCN)nn3)CC2)nc(N2CCN(C(=O)CCCCCCCCCCNC(=O)[C@@H]([C@H](C)O)n3cc(C)nn3)CC2)n1,3103,-9
C/C(=C/CCC(C)(O)C1CC[C@@]2(C)[C@@H]3CC=C4[C@@H](CC[C@H](O[C@H]5O[C@@H](CO)[C@H](O)[C@@H](O)[C@@H]5O)C4(C)C)[C@]3(C)C(=O)C[C@]12C)CO[C@@H]1O[C@H](CO)[C@@H](O)[C@H](O)[C@H]1O (stereo partly specified),4041,-13
C#CCOCCOCCOCCNc1nc(N2CCN(C(=O)[C@H](CC(N)=O)n3cc([C@@H](N)C(C)C)nn3)CC2)nc(N2CCN(C(=O)[C@H](CC(N)=O)n3cc([C@@H](N)C(C)C)nn3)CC2)n1,4349,-21
O=C(O)C(SC(C(=O)O)c1ccccc1)c1ccccc1 (stereo unspecified),2811,-20
C[C@H](CO)N1C[C@H](C)[C@@H](CN(C)C(=O)NC2CCCCC2)Oc2ccc(NC(=O)Cn3cnnn3)cc2C1=O,3923,2
CC(=O)N[C@@H](CC(=O)O)C(=O)O,5657,-5
COc1cc2c(c(OC)c1OC)C(c1ccc(O)cc1)CC(=O)O2 (stereo unspecified),3702,-16
COc1ccc(S(=O)(=O)N2CCOCC2)cc1C(=O)Nc1ccc(N2CCCCCC2)cc1,2876,-16
COc1ccc(NC(=O)Nc2cccc3c2O[C@H](CN(C)C(=O)Nc2c(C)noc2C)[C@@H](C)CN([C@H](C)CO)C3=O)cc1,4851,-26
COC(=O)C1=C(c2ccc(OC)c(OC)c2)C[C@@H]2CC[C@H]1N2C(=O)NCCOc1ccccc1,3911,-19
O=C(/C=C/c1ccccc1)Nc1cccc(C(=O)N2CCCC2)c1,3951,-15

More compounds follow.
Structure,Autofluor counter,PrP 5UTR inh
CCC/C=C1/CCCOC(C(=O)NCc2ccc(C)o2)(C(F)(F)F)C1 (stereo unspecified),3313,-3
CN1C(=O)C(C)(C2=CCCCC2)C(=O)NC1=S (stereo unspecified),3474,-20
Cc1ccc(S(=O)(=O)Nc2ccc3ncccc3c2[N+](=O)[O-])cc1,3633,-15
CC(C)(C)OC(=O)N(Cc1ccccc1)Cc1ccccc1OCc1cccc(NC(=O)c2ccccc2)c1,3967,-5
CC[C@H]1c2[nH]c3ccc(C(C)C)cc3c2[C@@H]2CCN3C(=O)CCC[C@H]1[C@H]23,4012,-70
C[C@@]12C(=O)Nc3ccc(F)cc3C(=O)N1[C@H]1c3cc(Cl)ccc3OC[C@@H]1[C@@H]2c1ccccc1,4193,1
COc1ccc(NC(=O)c2c[nH]c(=O)n(-c3ccc(C)c(C)c3)c2=O)c(OC)c1,5185,-14
COc1cc2c(cc1OC)[C@H]1C(=O)c3ccc4c(c3O[C@H]1CO2)C[C@@H](C(C)(C)O)O4,2832,-2
COc1ccc([C@@H]2CC(=O)c3c(O)cc(O)cc3O2)cc1O,5706,-29
CC[C@H](C)[C@H](NC(=O)OCc1ccccc1)C(=O)OCC(=O)N1CCN(c2ccc(F)cc2)CC1,3564,-19
O=C1C=C2C=C[C@@H]3CC2(O1)[C@H]1CCCCN31,5909,-10
O=C(N/N=C\c1ccccc1F)c1ccc(-c2ccccc2)cc1,5196,-8
NC(=O)c1ncn([C@@H]2O[C@H](CNCc3ccc(OCC(=O)Nc4nccs4)cc3)[C@@H](O)[C@H]2O)n1,3781,-22
OCC[C@H]1C[C@H](O)[C@@H](O)[C@@]2(Cc3ccccc3CCO2)O1,2937,-17
CC1CCN(C(=O)c2nc[nH]c2C(=O)O[C@H](C)c2ccccc2)CC1,4833,-23
COC(=O)[C@@H](Cc1ccccc1)NC(=O)CC[C@H]1O[C@@H](n2cc(C)c(=O)[nH]c2=O)C[C@@H]1O,3533,-1
CC1CCN(S(=O)(=O)c2ccc(Cl)s2)CC1,5260,-20
COc1ccc2cc(C3=CC(=O)C[C@H](c4ccc5c(c4)OCO5)C3)ccc2c1,3858,-3
CCCCC[C@@H]1C=C(C(=O)O)[C@H](c2ccc(Cl)cc2)N1S(=O)(=O)c1ccc(C)cc1,3985,-7
OC[C@H]1O[C@H](OCCc2ccc(O)cc2)[C@H](O)[C@@H](O)[C@@H]1O,3827,-3

New compounds follow
Structure,Autofluor counter,PrP 5UTR inh
COc1ccc(CN([C@H](CO)CC(C)C)S(=O)(=O)N(Cc2ccccc2)[C@H](CO)CC(C)C)cc1,2881,-26
CCN1C(=O)[C@@H]2[C@@H](c3ccc(-c4ccc(F)cc4)c(OC)c3)N3CCC[C@@]3(C(=O)OC)[C@@H]2C1=O,3876,-23
NC(=O)C(CC(=O)O)NC(=O)[C@@H]1CCCNc2c(I)cc([N+](=O)[O-])cc2C(=O)N[C@@H](CO)C(=O)N[C@@H](Cc2ccc(O)cc2)C(=O)N1 (stereo partly specified),3991,-15
COc1cc2c[n+](C)c3c4ccccc4ccc3c2cc1OC,3202,-34
C[C@@H]1CN([C@H](C)CO)C(=O)c2cccc(NC(=O)Nc3ccc(C(F)(F)F)cc3)c2O[C@H]1CN(C)S(=O)(=O)c1cccs1,3815,-1
CCOC(=O)c1c(SCCN2CCCC2)n(-c2ccccc2)c(=S)n(-c2ccccc2)c1=O,3129,65*
CCCCC/C=C/C1=CC(=O)C[C@H](c2ccc3c(c2)OCO3)C1,3753,-12
C=C(C)[C@@H]1C2C(=O)O[C@H]1[C@H]1OC(=O)[C@@]34OC3C[C@]2(O)[C@@]14C (stereo partly specified),4318,0
COc1ccc(C2/C(=C(/O)c3ccc4c(c3)CC(C)O4)C(=O)C(=O)N2CCCn2ccnc2)cc1OC (stereo unspecified),5454,-16
CC(=O)N1CCOc2ccc(S(=O)(=O)NC[C@H]3O[C@@H](n4ccc(=O)[nH]c4=O)[C@H](O)[C@@H]3O)cc21,4032,-4
Cc1cc(O)c(C=O)c2c1C(=O)Oc1c(CO)c(O)c3c(c1O2)C(O)OC3=O (stereo unspecified),4128,-5
COC(=O)C1=C(C(=O)OC)[C@]2([C@@H]3CC=CCN[C@@H](Cc4ccccc4)C(=O)N3Cc3ccccc3)C=C[C@H]1O2,4022,-21
O=C1Cc2ccccc2C(=O)N1Nc1ccccc1,4319,-12
Cn1nc(SCc2ccccc2)c(=O)n(C(c2ccccc2)c2ccccc2)c1=O,4361,-25
COc1ccc(Br)cc1/C=N/Nc1ccc(S(=O)(=O)Nc2ccccc2C(=O)O)cc1[N+](=O)[O-],5913,-8
COC1C(OC(=O)/C=C/C=C/C=C/C=C/C(=O)O)CCC2(CO2)C1C1(C)OC1CC=C(C)C (stereo unspecified) (tested in a mixture with another compound),3629,18
Nc1ccc2sc(N)nc2c1,3536,-8
CCOC(=O)C1=C(C)NC2=C(C(=O)CC(c3ccc(OC)c(OC)c3)C2)C1c1ccc(C)o1 (stereo unspecified),8161,16
CC(=O)Nc1ccc(C2=CC(=O)C[C@H](c3ccc(Cl)cc3)C2)cc1,4200,-10
O=C(C[C@@H]1C/C=C\C[C@@H](Cc2ccc(F)cc2)C(=O)OCCNC1=O)NCCO,3052,-24

Look-ups from above:
In PrP 5UTR inh, NC(=O)C(CC(=O)O)NC(=O)[C@@H]1CCCNc2c(I)cc([N+](=O)[O-])cc2C(=O)N[C@@H](CO)C(=O)N[C@@H](Cc2ccc(O)cc2)C(=O)N1 (stereo partly specified) has the entry -15
In Autofluor counter, O=C(C[C@@H]1C/C=C\C[C@@H](Cc2ccc(F)cc2)C(=O)OCCNC1=O)NCCO has the entry 3052
In Autofluor counter, COC(=O)C1=C(C(=O)OC)[C@]2([C@@H]3CC=CCN[C@@H](Cc4ccccc4)C(=O)N3Cc3ccccc3)C=C[C@H]1O2 has the entry 4022

Going on with the list:
Structure,Autofluor counter,PrP 5UTR inh
CC(C)C[C@H](NC(=O)OCC1c2ccccc2-c2ccccc21)C(=O)O,6051,-15
O=C(Nc1cc(Sc2ccccn2)cc([N+](=O)[O-])c1)c1ccc([N+](=O)[O-])cc1,4505,-3
CC(C)=N/N=C1/NC(=O)C(c2ccccc2)S1 (stereo unspecified),4009,1
CCN1C(=O)[C@H]2[C@@H](c3ccc(C)cc3)N3C(=O)N(c4cccc(Cl)c4)C(=O)[C@@]3(C)[C@H]2C1=O,3597,-19
CC(C)C[C@H]1CNC(=S)N1CC1CCN(CCC23CC4CC(CC(C4)C2)C3)CC1,3946,-9
COc1ccccc1[C@@]1(C)ON(c2ccccc2C(F)(F)F)C1=O,3052,-16
O=C1C=C(c2ccc(O)cc2)C[C@@H](c2ccc(Cl)cc2)C1,2765,-6
C[C@H](CO)N1C[C@H](C)[C@@H](CN(C)S(C)(=O)=O)Oc2c(NC(=O)Nc3ccc(C(F)(F)F)cc3)cccc2C1=O,3250,-11
COc1ccc(/C=C2/CCCc3ccccc3C2=O)cc1,3026,-12
Cc1ccc(S(=O)(=O)NCC(=O)NNC(=O)c2ccccc2Cl)cc1C,3612,-23
O=S(=O)(c1c(F)cccc1F)N(CCc1ccc(F)cc1)C[C@@H](O)COCc1ccccc1,2789,1

Full records from above. Values in the order: Autofluor counter	PrP 5UTR inh
Listed for CC1CCN(S(=O)(=O)c2ccc(Cl)s2)CC1 = 5260	-20
Listed for Cc1ccc(S(=O)(=O)Nc2ccc3ncccc3c2[N+](=O)[O-])cc1 = 3633	-15
